CSC inhib = cancer stem cell inhibition. cancer stem cell-like cells viability, luminescence. inhibition, % at 7.5 µM. 300,000 compounds, 1.1% hits;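 active = mean at 75% or more and at least half the replicates too; tested in HMLE shEcad cells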;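 also: 0% = median of negative and 100% = median of positive control wells; the first replicate is given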
Env fusion inh = HIV envelope-mediated fusion inhibition. HeLa-JRFL Env/CEM21 cell fusion, luciferase. inhibition, % at 12.3 µM. 360,000 compounds, 1.1% hits. AID 651610;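 active = mean replicate inhibition score of at least 50 and every replicate individually at or above 50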;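 also: 0% = plate neutral controls and 100% = maraviroc near 300 nM; one replicate is shown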
MT1-MMP act inh = MT1-MMP (human) activation inhibition. 360,000 compounds, 0.061% hits. GFP/RFP ratio change, % at 20 µM. HT1080 RFP-PRO-GFP cells, GFP/RFP ratio fluorescence, overnight; percent of plate control window, DMSO zero;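 active = GFP/RFP ratio change of at least 30% with cell ATP level not reduced by more than half and red fluorescence within 50% of control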; also: strong numbers were not always called active
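Assay system – RFP-PRO-GFP reporter HT1080 cells · Compound dosing – single dose of 20 µM compound, 1% DMSO final · Incubation – overnight compound exposure at 37 °C · Measure – GFP/RFP fluorescence ratio · Benchmarks – DMSO wells and RFP-L50D-GFP cells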
UUG fidelity = modulators of start codon recognition fidelity in yeast | S. cerevisiae UUG-firefly luciferase reporter, luminescence/redox ratio | activity score, % at 18.7 µM | 350,000 compounds, 0.13% hits;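 active = replicate mean at a twofold rise or more, about +100% in these data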;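 also: firefly luciferase made from a UUG start codon reports start codon fidelity; reporter light over untreated wells divided by growth signal over untreated wells; some hits fall short of that in this replicate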
eIF4H FP inh = inhibitors of RNA binding by human eIF4H. eIF4H fluorescence polarization binding assay. inhibition, % at 35 µM. 290,000 compounds, 0.94% hits. AID 2012;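 active = 50% or more with normal probe brightness, or confirmed in later tests; about a fifth of its hits are not listed in these tables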;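 also: calls also rest on retests at 20 µM and on dose response follow-up; 0% = protein and probe with vehicle and 100% = probe without protein; strong numbers were not always called active; many hits fall short of the cut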
Rce1 inhib = blocks yeast Ras-converting enzyme. Q03530. 290,000 compounds, 0.27% hits. yeast membranes, quenched prenylated peptide cleavage fluorescence. calls only;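 active = fall in fluorescence gain of 50% or more versus controls, with final raw signal at or below 3038400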;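 also: plate controls were neutral control wells for no effect and wells lacking membranes for full effect; tested at 10 µM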
Target sequence (Q03530 whole entry, looked up): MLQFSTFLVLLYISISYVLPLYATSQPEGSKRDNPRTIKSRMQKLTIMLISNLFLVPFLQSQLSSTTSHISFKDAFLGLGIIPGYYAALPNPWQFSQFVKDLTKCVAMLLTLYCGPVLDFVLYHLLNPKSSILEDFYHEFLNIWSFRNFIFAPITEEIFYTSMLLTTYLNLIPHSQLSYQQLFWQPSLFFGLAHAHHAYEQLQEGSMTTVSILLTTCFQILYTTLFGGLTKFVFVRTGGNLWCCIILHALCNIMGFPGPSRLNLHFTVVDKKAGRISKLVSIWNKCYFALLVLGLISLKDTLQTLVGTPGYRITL
PABP polyA inh = blocks human PABP binding to poly(A) RNA; P11940; fluorescence polarization; inhibition, % at 35 µM; 290,000 compounds, 1% hits;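 active = 50% or more with normal probe brightness, or confirmed in later tests; about a fifth of its hits are not listed in these tables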;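 also: calls also rest on retests at 20 µM and on dose response follow-up; controls were probe without protein and protein plus probe with vehicle; some compounds called inactive have numbers as strong as hits; many hits fall short of the cut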
Target sequence (P11940 whole entry, looked up): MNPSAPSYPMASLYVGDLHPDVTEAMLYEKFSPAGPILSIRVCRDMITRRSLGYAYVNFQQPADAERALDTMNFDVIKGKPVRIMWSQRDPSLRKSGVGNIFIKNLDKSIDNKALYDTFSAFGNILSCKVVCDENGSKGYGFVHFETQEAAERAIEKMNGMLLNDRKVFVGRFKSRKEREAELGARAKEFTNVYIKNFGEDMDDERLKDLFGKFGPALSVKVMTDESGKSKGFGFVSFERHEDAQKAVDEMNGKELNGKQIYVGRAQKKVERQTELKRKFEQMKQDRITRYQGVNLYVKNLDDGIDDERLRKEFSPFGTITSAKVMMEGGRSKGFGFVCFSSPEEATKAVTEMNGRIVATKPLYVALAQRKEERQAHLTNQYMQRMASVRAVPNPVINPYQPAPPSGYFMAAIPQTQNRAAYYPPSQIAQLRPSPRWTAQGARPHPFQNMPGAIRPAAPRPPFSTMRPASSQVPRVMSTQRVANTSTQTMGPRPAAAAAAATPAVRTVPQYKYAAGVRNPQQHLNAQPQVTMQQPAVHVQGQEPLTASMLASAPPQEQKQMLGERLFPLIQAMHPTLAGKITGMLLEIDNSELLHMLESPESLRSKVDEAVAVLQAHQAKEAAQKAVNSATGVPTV
MT1-MMP act inh RFP = further read-out of MT1-MMP act inh, marked with its call; RFP signal change, %; measured here: RFP expression control read;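 0 = vehicle wells; hits needed this value within 50% of zero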
Active calls of the source: *; i = inactive; . = not tested or not shown. A portion of the library, so the mix of outcomes need not match the whole.

Values in the order: eIF4H FP inh	Env fusion inh	PABP polyA inh	MT1-MMP act inh RFP	Rce1 inhib	CSC inhib	UUG fidelity	MT1-MMP act inh
1: CC(C)C(C(=O)NCc1ccco1)N(Cc1ccco1)C(=O)CNS(=O)(=O)c1ccccc1 (configuration not stated)
 : -5	-2	5	3	i	-11	-7	2
2: Cc1cccc(N2C(=O)CS/C2=N\NC(=O)c2cccnc2)c1C
 : 0	10	-4	0	i	4	.	-2
3: Cn1c(=O)c2[nH]c(NCCCN3CCOCC3)nc2n(C)c1=O
 : 9	.	7	3	i	-9	-22	1
4: Brc1cc2c(cc1/C=N/Nc1nc(N3CCOCC3)nc(N3CCOCC3)n1)OCO2
 : -1	.	-5	0	i	-4	.	1
5: N#Cc1ccc(COC(=O)c2ccccn2)cc1
 : -1	5	-3	.	i	-23	.	.
6: Cc1cc(NC(=O)Cn2nc(-c3cccs3)ccc2=O)cc(C)c1Br
 : -12	4	-3	-3	i	-6	-3	3
7: CCOC(=O)c1ccc(NC(=O)C2(c3ccc(Cl)cc3)CCCC2)cc1
 : -9	.	1	-7	i	1	7	-6
8: COCCNc1nc2nonc2nc1NC(C)c1ccccc1Cl (configuration not stated)
 : -1	-8	10	4	i	-5	.	-2
9: CC(=O)Nc1cc(C(=O)N2CCc3ccccc3C2)ccc1Sc1ccc(F)cc1
 : -12	4	-23	0	i	3	-18	2
10: O=C(NN=Cc1ccc2c(c1)CCC2)c1ccccc1O
 : .	-51	.	2	.	.	-22	5
11: CCSc1cc(N2CCOCC2)nc(-c2ccccc2)n1
 : 1	-1	2	6	i	22	.	0
12: CC(=O)c1ccc(Oc2nc3c(c(=O)n(C)c(=O)n3C)n2C)cc1
 : -4	7	-1	0	i	-11	-9	-2
13: COc1ccc(CCNC(=O)Nc2nc(C(N)C3CCCCC3)cs2)cc1OC (configuration not stated)
 : .	9	.	-1	.	.	-4	-3
14: O=c1[nH]nc(-c2ccc(NCCCO)c([N+](=O)[O-])c2)c2ccccc12
 : 6	15	12	-5	i	-1	-4	1
15: Nn1cnnc1SCC(=O)N1CCc2ccccc2C1
 : .	0	.	-1	.	.	-29	-3
16: O=C1N/C(=N\N=C\c2cccs2)SC1Cc1ccc(Cl)cc1Cl (configuration not stated)
 : -1	.	-2	-5	i	39	.	-1
17: Nc1n[nH]c(N)c1N=Nc1ccc(F)cc1
 : 7	-2	12	2	i	-2	.	6
18: Cc1cc(NC(=O)CSc2c(C)[nH]c3ccccc23)no1
 : 0	-14	-10	3	i	-6	7	0
19: Cc1nc2cncc(Br)c2n1C
 : 0	.	-2	7	i	2	-12	5
20: CC(=O)Nc1ccc(NC(=O)COC(=O)CCNS(=O)(=O)c2c(Cl)cccc2Cl)cc1
 : .	-4	.	1	.	.	-3	-3
21: O=C(NCC1CCCO1)c1ccc(N2CCCCC2)c([N+](=O)[O-])c1 (configuration not stated)
 : -6	-10	6	0	i	-23	-4	1
22: CCOC(=O)N1CCN(c2c(NCCOC)c(=O)c2=O)CC1
 : -2	21	4	3	i	8	-3	-1
23: O=C(Nc1cccc(Br)c1)c1ccc2c(c1)SC1=NS(=O)(=O)CCN12
 : .	14	.	0	.	15	-7	12
24: Brc1ccc(-c2c(-c3ccsc3)sc3ccccc23)cn1
 : .	-7	.	-4	.	32	-6	0
25: O=S(=O)(Nc1ncccn1)c1ccc(Nc2ncnc3ccccc23)cc1
 : 11	.	-3	7	i	1	-11	7
26: CC(C)Oc1ccc(C(=O)NCc2ccco2)cc1
 : -6	.	-3	1	i	-33	-2	1
27: CN1CCN(C(=O)C(=O)c2cn(CC(=O)N3CCCC3)c3ccccc23)CC1
 : -7	32	3	-2	i	-8	-16	-2
28: Cc1ccc(C(=O)N[C@H](C(=O)NC2CCCCC2)C(C)C)cc1
 : .	-3	.	-2	.	-15	-13	-7
29: Cc1cc(SCC(=O)N2c3ccccc3NC(=O)CC2C)nc2ccccc12 (configuration not stated)
 : .	-75	.	5	.	.	-15	4
30: CC(C)NC(=O)c1onc(CSc2nc3ccccc3[nH]2)c1C(=O)NC(C)C
 : -9	2	5	3	i	-7	-1	1
31: CCc1nnc(NC(=O)c2ncc(Cl)c(Cl)c2Cl)s1
 : -8	.	8	2	i	-3	-14	1
32: COCCNC(=O)C1(C)CCCN(Cc2ccc(Oc3ccccc3)cc2)C1 (configuration not stated)
 : .	9	.	1	.	.	-13	-1
33: COc1ccc(OC)c(S(=O)(=O)Nc2ccc(F)cc2)c1
 : -5	.	-10	2	i	-5	-19	1
34: CC(C)NS(=O)(=O)c1ccc(OCC(=O)Nc2ccc3c(c2)OCO3)cc1
 : 1	11	14	0	i	-1	.	2
35: Cc1c(Cl)cccc1N1C(=O)c2ccccc2C1=O
 : -1	-2	-6	3	i	-8	-15	2
36: O=C(NC1CCCCCCC1)C1CCN(S(=O)(=O)N2CCCC2)CC1
 : -8	.	2	0	i	-2	-14	-3
37: O=C1NC(Cc2ccc(O)cc2)c2nc3cc(Cl)ccc3c(=O)n2-c2cc3ccccc3cc21 (configuration not stated)
 : .	-27	.	-21	.	.	0	-16
38: CC(C)(CO)C(O)C(=O)NCCC#N (configuration not stated)
 : 6	.	7	4	i	10	-4	0
39: CCC(C)(C)NC(=O)C(c1ccc(OC)cc1)N(C(=O)CCC(=O)Nc1cc(C)on1)c1ccc2c(c1)OCCO2 (configuration not stated)
 : -12	19	1	1	i	5	18	-1
40: Cc1cccc(-n2cc(-c3ccc([N+](=O)[O-])cc3)[nH]c2=S)c1
 : -1	.	0	4	i	-7	-5	15
41: COC(=O)/C=C/c1c(C)[nH]c(=O)[nH]c1=O
 : -14	-3	5	5	i	-11	.	5
42: CC(C)N(Cc1ccccc1)C(=S)Nc1cccnc1
 : -8	-6	-13	3	i	-11	.	-1
43: CCOC(=O)Cn1cncc1-c1ccc([N+](=O)[O-])cc1
 : -5	-23	0	6	i	11	-4	5
44: COc1ccc2c(c1)c1ncn(Cc3ccccn3)c(=O)c1n2C
 : -1	-9	-11	-5	i	-15	.	5
45: CCOC(=O)C1=NNC2C(=O)N(C3CCCCC3)C(=O)C12 (configuration not stated)
 : -6	.	1	7	i	5	-3	-1
46: Cc1ccc(NC(=S)N2CCN(C)CC2)c(C)c1
 : 1	4	-3	2	i	-1	.	1
47: COc1ccc(CNC(=O)COC(=O)CCC2CCCCC2)cc1
 : -10	-21	-5	7	i	-26	-4	12
48: CC(NS(=O)(=O)/C=C/c1ccccc1)C(=O)NCCc1ccc(S(N)(=O)=O)cc1 (configuration not stated)
 : -6	-8	-6	1	i	-4	-19	-3
49: Cc1ccc(C(=O)C2C(c3ccc(-c4ccccc4[N+](=O)[O-])o3)NC(=O)NC2(O)C(F)(F)F)cc1 (configuration not stated)
 : .	.	.	-2	i	11	6	1
50: CCc1nc2ccc(C(=O)NCCCn3ccnc3)cn2c1N(C)C(=O)COc1ccccc1
 : .	-12	.	6	.	.	-6	-3
51: O=S(=O)(Nc1ccc(-c2cn3ccccc3n2)cc1)c1ccccc1
 : 0	-19	0	1	i	-6	-18	7
52: Cc1ccc(N2C(=O)Nc3ccc(Br)cc3C2(O)C(=O)NCCCN(C)C)cc1C (configuration not stated)
 : -2	-47	16	2	i	2	-17	7
53: Cc1c(C)n(CCCN(C)C)c2ncnc(NCc3ccccc3)c12
 : 24	16	18	2	i	-6	-20	4
54: S=c1[nH]c2ccc(Cl)cc2s1
 : 5	3	0	2	i	-6	.	-1
55: O=C(Nc1cc(Cl)ccc1-n1cncn1)c1cc(F)c(F)c(F)c1F
 : .	-3	.	0	i	1	-7	-4
56: CC(C)(C)SCCNC(=O)/C=C/c1ccc(F)cc1
 : 3	.	35	4	i	-5	.	2
57: CC1CN(C(=O)c2cn3ccccc3n2)CC(C)O1 (configuration not stated)
 : -4	-78	4	-8	i	-12	-19	6
58: COc1ccc(Cl)cc1C(=O)NN=C1CCCC1
 : .	-1	.	-4	i	-9	.	-1
59: Cc1ccccc1NS(=O)(=O)c1cc(C(=O)Nc2cccc(N(C)S(C)(=O)=O)c2)ccc1C
 : 2	33	5	-7	.	11	-7	-2
60: CN(C)S(=O)(=O)c1cccc(C(=O)NCc2cccs2)c1
 : -5	.	-5	3	i	1	-6	3

(more compounds)
Values in the order: eIF4H FP inh	Env fusion inh	PABP polyA inh	MT1-MMP act inh RFP	Rce1 inhib	CSC inhib	UUG fidelity	MT1-MMP act inh
61: CC(Sc1nc(-c2ccccc2)cc(C(F)(F)F)n1)C(=O)NCc1ccco1 (configuration not stated)
 : -1	.	10	-2	i	-11	-29	2
62: CCCCC(=O)Nc1sc2c(c1C#N)CC(C)(C)OC2
 : -4	-12	-4	1	i	-6	-13	2
63: C=CCn1c(=N)n(CC(O)COc2ccccc2OC)c2ccccc21 (configuration not stated)
 : 2	1	-15	5	i	-15	0	1
64: COc1ccc(S(=O)(=O)NCc2ccccn2)cc1C
 : .	10	.	1	.	.	-8	1
65: Cc1ccc(NC(=O)CSc2nc3ccccc3c(=O)n2CCCN2CCCCC2)cc1C
 : -7	-96	-2	0	i	11	-1	0
66: CCn1nc(C(=O)OC2CCOC2=O)c2ccccc2c1=O (configuration not stated)
 : -5	.	2	3	.	-5	-18	-1
67: NC(=O)COC(=O)c1cc(-c2cccs2)nn1-c1ccccc1
 : 4	-21	-2	5	i	.	-15	0
68: O=C(CN1CCOCC1)NCC12CC3CC(CC(C3)C1)C2
 : -4	.	-1	3	i	5	1	4
69: COC(=O)CN1C(=O)N/C(=C/c2ccc(OC)cc2)C1=O
 : -3	3	12	2	i	-11	.	0
70: COC(=O)c1cc(-c2ccc(OC)cc2F)nc2nc(SC)[nH]c(=O)c12
 : -8	11	-6	2	i	-9	-8	5
71: CC(C)(C)n1[nH]c2c3c(ccc2c1=O)C(=O)c1ccccc1C3=O
 : 2	-31	2	-3	i	48	.	11
72: CCCCNC(=O)CSc1nc2ccccc2c(=O)n1Cc1ccc2c(c1)OCO2
 : -4	-32	9	-2	i	-11	.	2
73: O=C(Nc1ccc(OCC(=O)N2CCOCC2)cc1)c1ccccc1Cl
 : -10	-18	-2	6	.	0	-30	3
74: Cc1ccc(N(CC(N)=O)C2SC(=O)N(Cc3ccccc3)C2=O)cc1 (configuration not stated)
 : -2	18	-2	10	i	-8	-7	10
75: CC(C(=O)OCC(=O)Nc1cccc(S(=O)(=O)N2CCOCC2)c1)N1C(=O)c2ccccc2C1=O (configuration not stated)
 : -1	2	-12	0	i	7	12	-1
76: O=C(c1ccc2c(c1)OCO2)N1CCN=C1SCc1cccnc1
 : -3	22	1	0	i	2	-28	-3
77: O=C(Cn1cnc2c(cnn2-c2ccc(F)cc2)c1=O)N1CCN(c2ccccc2F)CC1
 : -6	5	-12	-9	i	-5	-12	1
78: CCOC(=O)c1ccc(N=C2SC(C(=O)NC)CC(=O)N2Cc2ccc(F)cc2)cc1 (configuration not stated)
 : -4	9	-8	-4	i	0	-10	-1
79: CC1CCCCN1S(=O)(=O)c1ccc(NC(=O)c2ccco2)cc1 (configuration not stated)
 : 20	-23	4	-1	i	-6	7	6
80: CCOC(=O)N/N=C/c1cccc(Cl)c1Cl
 : 1	-27	42	0	i	-12	-6	2
81: CC(=O)Nc1ccc(Nc2nc(-c3cc4ccccc4oc3=O)cs2)cc1
 : -6	-82	12	-20	i	.	-9	6
82: Cc1cc(N/N=C/c2ccc3c(c2)OCO3)nc2ccccc12
 : -2	-192	-6	1	i	20	.	0
83: CCOC(=O)c1sc2ncn(/N=C/N(C)C)c(=O)c2c1C
 : 0	.	-3	0	i	-6	-13	0

Part of the list above, limited to PABP polyA inh and CSC inhib:
No. | Molecule | PABP polyA inh | CSC inhib
70 | COC(=O)c1cc(-c2ccc(OC)cc2F)nc2nc(SC)[nH]c(=O)c12 | -6 | -9
71 | CC(C)(C)n1[nH]c2c3c(ccc2c1=O)C(=O)c1ccccc1C3=O | 2 | 48
72 | CCCCNC(=O)CSc1nc2ccccc2c(=O)n1Cc1ccc2c(c1)OCO2 | 9 | -11

Screening data (PubChem)
